PINK1 modulator = PINK1 expression modulation; PINK1 immunofluorescence, high-content cytometry, 24 h; Potency, µM (top dose mostly 76.6 µM), inactives show at the top dose activation (PINK1 increase), hits mostly activators; hit rate 0.2% among 410,000; AID 624263; active = well fitted activation curve with a large enough effect; inconclusive = small, poorly fitted or top-dose-only effect; inactive = flat fitted curve, though single readings scatter; cell line not stated here;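 further: potency means the concentration at half of the fitted maximal effect; % of control where 0% means no effect; nearly all actives have a fitted effect of over 65% in size; a mitochondrial uncoupler was the plate control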
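Fluorescence from anti-PINK1 antibody, together with nuclear and cell stains, was scanned on a laser-scanning cytometer. Before staining, stable-line cells were incubated 24 hours with compounds at 5 concentrations; primary antibody 12 h at 10 degrees C.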
gsp ag = activates gsp, the McCune-Albright syndrome mutation | gsp mutant cells, cAMP HTRF, 30 min; control for the full effect not named in the record | Potency, µM (doses to about 76.9 µM), without a hit: top-dose activation (cAMP increase), most hits filed as activators | hit rate 0.13% among 340,000 | AID 624287; active = well fitted activation curve with a large enough effect; inconclusive = small, poorly fitted or top-dose-only effect, or another doubt; inactive = no such curve, though single readings can be large or run the other way; cell line not stated here;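 further: phosphodiesterase inhibitor Ro 20-1724 added with compounds to block cAMP breakdown; potency means the concentration at half of the fitted maximal effect; nearly all actives have a fitted effect of over 60% in size; about a fifth of the inactives were tested at one dose only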
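Cells in DMEM/10% FBS with G418 were pretreated with compounds in DMSO plus […] (300 uM stock) for 30 min at 37C. cAMP was measured by HTRF (cAMP-d2 plus anti-cAMP antibody-K) after 30 min at room temperature.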
Menin-MLL FL inh = menin-MLL binding inhibition, fluorescein peptide | 290,000 tested, under 10 active | Fluorescence polarization, fluorescein-MLL peptide displacement from menin | FP activity change, % at 61.4 µM; inconclusive = falling polarisation curve, or a change in total fluorescence; inactive = total fluorescence flat and polarisation flat or rising; no compound was filed as active; the % refers to the polarisation; negative = inhibition;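 further: % of control where 0% means no effect; inhibitors lower the polarisation; unlabelled MLL peptide was the positive control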
D2 ag = agonists of human D2 dopamine receptor (beta-arrestin); P14416; DiscoveRx PathHunter D2 beta-arrestin, luminescence, 90 min; 100% = 57 uM dopamine signal; activation, % (test concentration not listed); hit rate 0.084% among 360,000; AID 624465; in the data active = activation above about 40%; inconclusive = about 15% to 40%; inactive = below about 15%; further: compound concentration not given in the record; the text of the record calls up to 30% inactive
Target sequence (P14416 whole entry, looked up): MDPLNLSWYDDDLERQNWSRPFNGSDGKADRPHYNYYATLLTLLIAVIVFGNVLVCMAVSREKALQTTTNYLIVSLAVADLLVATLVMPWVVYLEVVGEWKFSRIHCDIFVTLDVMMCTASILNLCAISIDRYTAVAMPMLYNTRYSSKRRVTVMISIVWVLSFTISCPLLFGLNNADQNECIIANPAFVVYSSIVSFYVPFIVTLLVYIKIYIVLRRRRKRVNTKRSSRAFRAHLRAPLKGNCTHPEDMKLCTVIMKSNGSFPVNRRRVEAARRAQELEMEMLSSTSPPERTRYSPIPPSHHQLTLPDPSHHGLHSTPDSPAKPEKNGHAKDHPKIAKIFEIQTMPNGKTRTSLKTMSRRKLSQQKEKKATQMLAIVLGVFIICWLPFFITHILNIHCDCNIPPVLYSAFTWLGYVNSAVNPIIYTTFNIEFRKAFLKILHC
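DiscoveRx PathHunter D2 beta-arrestin cells (2,100/well) attached overnight, then compound-stimulated 90 min at 37 C in HBSS/10 mM HEPES/0.1% Tween-20 buffer; beta-galactosidase complementation read by luminescence after 1 h at ambient temperature. Dopamine 57 uM final (EC100) as control.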
gsp antagonist = antagonizes gsp, the McCune-Albright syndrome mutation; hit rate 0.4% among 340,000; AID 624288; Potency, µM (titrated, usually from 76.9 µM), inactives show at the top dose activity change, negative = inhibition, usual class: inhibitors; gsp-mutant cells, cAMP HTRF, 30 min; control for the full effect not named in the record; active = falling curve of any shape with a large fitted effect; inconclusive = falling curve, mostly with a smaller effect; inactive = flat or rising curve; cell line not stated here;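 further: intracellular cAMP measured with PDE inhibitor Ro 20-1724 present during compound exposure; potency means the concentration at half of the fitted maximal effect; on the % scale 0 is the no-effect control and ±100 the full control effect; nearly all actives have a fitted effect of over 65% in size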
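HTRF cAMP read-out (cAMP-d2 plus anti-cAMP antibody-K in lysis buffer, 30 min RT). Before lysis, cells are exposed to compounds with […] for 30 min at 37C in DPBS containing Ca/Mg, BSA and Tween 20.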
ClpP mod = qHTS Assay for Activators of ClpP | ATP-dependent Clp protease proteolytic subunit (Bacillus subtilis (strain 168)), P80244 | purified B. subtilis ClpP, FRET peptide cleavage, 20 min | AID 651965, 2013 | Potency, µM (series often up to 57.5 µM), without a hit: top-dose activity change, negative = active | hit rate 1.9% among 340,000; active = well fitted falling curve with a large enough effect; inconclusive = small, poorly fitted or top-dose-only effect; inactive = no such curve, though single readings can be large or run the other way; further: potency means the concentration at half of the fitted maximal effect; the source files actives as falling curves though it sought activators and does not explain the sign; nearly all actives have a fitted effect of over 65% in size; many hits overshoot -100%
Target sequence (P80244 whole entry, looked up): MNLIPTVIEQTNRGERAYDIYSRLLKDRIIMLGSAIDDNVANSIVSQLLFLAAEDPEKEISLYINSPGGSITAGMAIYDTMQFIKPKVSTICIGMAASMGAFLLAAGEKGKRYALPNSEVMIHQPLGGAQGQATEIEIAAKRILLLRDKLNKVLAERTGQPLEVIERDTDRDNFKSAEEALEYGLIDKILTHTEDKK
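Purified B. subtilis ClpP, 10 microg/mL final in Tris/HCl pH8 with KCl, BSA, glycerol and Tween-20, cleaved an Abz/nitrotyrosine-quenched decapeptide. Fluorescence (ex 320, em 430) was read at 0 and 20 min at room temperature. Delta was normalized to 5.8 microM ADEP and DMSO/no-enzyme controls.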
Sfp inh = blocks B. subtilis Sfp PPTase activity | Potency, µM, without a hit: max response, negative = inhibition, hits mostly inhibitors | Q9F4F7 | hit rate 3.5% among 310,000 | Biochemical Sfp PPTase activity, qHTS; active means well fitted inhibition curve with a large enough effect; inconclusive means small, poorly fitted or top-dose-only effect, or another doubt; inactive means no such curve, though single readings can be large or run the other way;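 further: the enzyme is Sfp with the accession as filed and its product quenches rhodamine fluorescence; potency means the concentration at half of the fitted maximal effect; 0% = enzyme reaction without inhibitor and -100% = no enzyme wells; top concentration of the series not given in the record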
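Reaction rates are the 30-min fluorescence difference (ex 525, em 598 nm) in wells containing 15 nM Sfp, 5 uM rhodamine-CoA and 12.5 uM BHQ-2-YbbR at pH 7.6 with 10 mM MgCl2.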
An asterisk follows results filed as active; ? = inconclusive; nt = not tested or not shown; & = joins results of further samples; [ ] = another dose, or the depositor's remark.

SMILES | PINK1 modulator | gsp ag | Menin-MLL FL inh | D2 ag | gsp antagonist | ClpP mod | Sfp inh
C=CCNc1c2c(nc3nnnn13)CCCC2 | 1.3% | -14%[15.4 µM] | 2.4 | -6.3 | 3% | nt | 5%
O=C(CN(c1cccc([N+](=O)[O-])c1)S(=O)(=O)c1ccccc1)N(Cc1ccccc1)Cc1ccccc1 | -1.8% | -12%[15.4 µM] | 5.7 | -5.2 | -13% | 0.4% | 28%
CC(C)(C)c1nc2ccc(Cl)cn2c1CC1CCCCC1 | ? | nt | nt | -1.8 | nt | -12% | nt
Cn1c(SCC(=O)Nc2ccc(F)cc2)nnc1C1CC1 | 0.9% | 3%[15.4 µM] | -0.3 | 0.5 | 18% | nt | 8%
CCOc1ccc(NC(=O)CNC(=O)COc2ccccc2)cc1 | 1.6% | -55%[inhibitor] | 8.1 | -1.3 | 14% | 0.2% | 8%
O=C1C(Cc2ccccc2)Nc2ncnc(N3CCN(c4ccccc4)CC3)c2N1Cc1ccc(Br)cc1 (stereo unspecified) | 0.9%&4.0% | nt | nt | -16&-18 | -14% | -9.7%&-2.0% | nt
Cc1ccc(C(=O)Nc2ccc(-c3csc(C)n3)cc2)cc1 | 3.5% | -4%[15.4 µM] | 1.2 | -0.2 | -6% | ? | 14%
CN(C(=O)c1cccc(C#N)c1)c1nnc(-c2cnccn2)s1 | -2.0% | -5% | 6.9 | 0.5 | 8% | -1.1% | 21%
Cc1ccc(C)c(OCC(O)CN2CCC(CN3C(=O)c4cccc5cccc(c45)C3=O)CC2)c1 (stereo unspecified) | -3.1% | ? | 3.5 | -0.2 | 4% | -11% | -12%
CCN(CC)c1cc2nc(C)n(Cc3ccccc3)c(=O)c2cc1NC(=O)C1CC1 | 0.8% | -41%[inhibitor] | -0.2 | 0.3 | -1% | -4.2% | 7%
Cc1n[nH]c(C)c1S(=O)(=O)N1CCN(C2CCCCC2)CC1 | 0.1% | -23% | 8.4 | -4.5 | 11% | 1.1% | -11%
CC1=Nc2ccccc2/C1=C/c1c(C)[nH]c2ccccc12 | 8.3% | 8% | nt | 4.1 | 4% | nt | nt
COc1ccc(S(=O)(=O)Nc2ccccc2C(=O)N2CCOCC2)cc1OC | 2.3% | -9%[15.4 µM] | 1.2 | 0.4 | 6% | nt | 11%
O=C(Cn1cncn1)N/N=C/c1ccccc1O | -0.6% | -8%[15.4 µM] | 5.3 | -3.5 | 9% | nt | 18%
Clc1ccccc1OCc1nn[nH]n1 | 1.5% | -52%[inhibitor] | 1.8 | -2.1 | 9% | 1.4% | -14%
O=C(OCC(=O)N1CCCCCC1)c1ccc([N+](=O)[O-])cc1Cl | 0.3% | 4% | -1.9 | -0.8 | -4% | 1.1% | 12%
O=C1CCCC2=C1C(O)(C(F)(F)F)C(=O)N2Cc1ccccc1 (stereo unspecified) | -0.1%[38.3 µM] | 14% | -0.1 | 1.2 | -2% | -3.4% | 9%
CCOCC(=O)Nc1ccc(F)c(F)c1 | -4.5% | -16% | -1.1 | 2.7 | 12% | -1.7% | 15%
COc1ccc(S(=O)(=O)N2CCCCCC2)cc1C(=O)N(C)Cc1c(F)cccc1Cl | 0.5% | ? | nt | 0.7 | 4% | -1.0% | nt
CCCCN1CCC(COC(=O)c2cc(Cl)c(N)c3c2OCCO3)CC1 | 3.6% | nt | 4.6 | 0.7 | 4% | -3.5% | nt
O=C(c1cccc(-c2ccccc2F)c1)N1CC[C@@H](N2CCC(O)CC2)[C@H](O)C1 | -0.8% | -4% | 7.9 | 1.5 | 9% | -4.5% | 10%
Cc1nc2ccc(S(=O)(=O)Nc3cccc(-c4nc5cccnc5s4)c3)cc2s1 | 7.1% | 17% | -1.6 | 1.3 | -8% | -15% | 0%
COc1ccc(/C=N\NS(=O)(=O)c2ccc(C)cc2)cc1COc1ccccc1[N+](=O)[O-] | 0.2% | 2% | -0.4 | -2.8 | -7% | 0.0% | 27%
Cc1ccc(C)c(N2C(=O)CN=C2Nc2ccccc2Cl)c1 | -1.1% | 4% | 5.5 | -0.1 | -9% | -1.3% | 17%
COc1cc(C(=O)Nc2ccc(C)cc2C(NCC(=O)NN)c2ccccc2)cc(OC)c1OC (stereo unspecified) | -1.6% | ? | -5.1 | 1.8 | -13% | -1.8% | 10%
CC(=O)c1ccc(NC(=O)/C(C#N)=C/c2ccncc2)cc1 | -0.6% | 13% | nt | -4.3 | -13% | -0.2% | 4%
Cc1ccc(-c2ccc(/C=C3\C(=O)ON=C3c3ccccc3)o2)c([N+](=O)[O-])c1 | -1.7%[38.3 µM] | -27% | 4.4 | -2.8 | 6% | 0.9% | 22µM*
CCOc1ccc(N(CC(=O)O)S(=O)(=O)c2ccc(F)cc2)cc1 | -0.5% | 2% | 1.7 | -2.5 | 5% | ? | 0%
O=C(CCc1nnc(CCCCc2ccccc2)o1)NCCC1CCCCO1 (stereo unspecified) | -1.6% | -6%[15.4 µM] | -2.6 | -1.3 | 0% | nt | 8%
COCCCNS(=O)(=O)c1ccc(Oc2ncc(C(F)(F)F)cc2Cl)cc1 | -0.7% | -25% | -1.9 | -0.8 | 13% | -4.6% | -24%
COc1ccc(CSc2nnnn2C)cc1F | 1.0% | -28% | 8.2 | -1.2 | 3% | 0.6% | -7%
COc1ccc(SC[C@H](Cc2ccccc2)N2CC[C@@H](NC(=O)OCc3ccccc3)CCC2=O)cc1 | 1.9% | 1% | nt | 0.5 | -9% | -0.2%&-4.1% | nt
FC(F)C(F)(F)Oc1cccc(-c2n[nH]c(=S)n2Cc2ccccc2)c1 | 5.7% | -2%[15.4 µM] | nt | -6.3 | -15% | nt | nt
COc1ccc(NS(=O)(=O)c2ccc3c(c2)N(C(C)=O)CCO3)c(OC)c1 | -0.6% | -2% | 4.0 | -1.8 | -19% | 1.7% | 11%
CCc1nnc(NC(=O)c2cc(S(=O)(=O)N(C)c3ccc(OC)cc3)ccc2Cl)s1 | -0.6% | -54%[inhibitor] | nt | -0.5 | -16% | -2.2% | 9%
CC1CCCC(NC(=O)COC(=O)CCSc2ccccc2)C1C (stereo unspecified) | 0.2% | -39%[15.4 µM] | -0.7 | 1.0 | 11% | nt | 15%
Cc1nn(C)c(Oc2ccc(Cl)cc2)c1C(=O)Nc1ccc(F)cc1F | ? | -12% | 0.3 | 2.0 | -23% | -0.2% | 7%
CCOc1c2ccc(C(=O)N[C@H](C)C3CCCCC3)cc2nn1CCOC | 0.1% | -50%[inhibitor] | -1.5 | -2.9 | 8% | 3.8% | 9%
Cc1noc(C)c1C(=O)Nc1ccc(F)c(F)c1 | -2.1% | 3% | -0.9 | -0.5 | 0% | -0.7% | -8%
CCCCN(CCCNC(=O)C1CCN(S(=O)(=O)N2CCOCC2)CC1)Cc1ccccc1 | -1.5% | ? | -0.6 | 2.7 | 3% | 0.7% | 1%
Cc1ccc(C(O)c2ncc(-c3cccc4ccccc34)[nH]2)c(C)c1 (stereo unspecified) | 4.6% | nt | nt | 0.7 | nt | 5.0% | nt
CC(NC(=O)CN(C)CC(=O)Nc1cccc(F)c1)c1ccccc1 (stereo unspecified) | -0.1% | -15% | nt | -3.7 | -16% | -0.6% | nt
O=C1CN(C(=O)/C=C/c2ccco2)c2ccccc2N1 | -1.0% | -3%[15.4 µM] | 9.8 | -2.6 | nt | nt | ?
CCc1nnc(NC(=O)CSc2nc(C)nc3c2c(=O)n(C)c(=O)n3C)s1 | 9.0% | ? | 4.0 | 2.9 | 23% | -1.1% | -4%
COC(=O)c1[nH]c2c(c1C)C(=O)CC(c1ccc(OC)cc1)C2 (stereo unspecified) | 12% | -17% | 2.1 | 3.1 | -7% | nt | 9%
COc1ccc(/C=C(\NC(=O)c2ccc(C)cc2)C(=O)NCCN2CCOCC2)cc1 | 0.5% | 15%[15.4 µM] | -1.2 | -4.1 | 4% | nt | 7%
COc1cc(NC(=S)NC(=O)c2cc(C)cc(C)c2)ccc1NC(=O)c1cccs1 | 11% | 11% | -3.2 | -4.3 | 13% | -0.5% | 2%
CC1=C([N+](=O)[O-])C(c2ccc(Cl)cc2)NC(=O)N1 (stereo unspecified) | 0.3% | 3%[15.4 µM] | -7.7 | -6.2 | -5% | 0.4% | 24%
Cc1csc(=NC(=O)c2ccccc2)n1CCO | -1.9% | -37%[inhibitor] | -1.8 | 1.3 | 2% | 0.8% | 11%
CC(CN1CCCCC1)OC(=O)Cc1ccc(Cl)cc1 (stereo unspecified) | 1.5% | 4% | -0.3 | -2.8 | -7% | -3.4% | 5%
CC(=O)Oc1ccc(C(=O)Nc2ccccc2C(=O)Nc2ccc(C(=O)O)cc2)cc1 | 1.6% | -15% | -2.4 | -1.6 | -1% | 0.6% | 0%
COCCn1c(=O)c(-c2ccccc2)nc2cnc(N3CCN(C)CC3)nc21 | -0.5% | nt | -2.7 | nt | nt | nt | 9%
CC(C)(C)NC(=O)C[C@H]1C[C@H](C(=O)N2CCCCC2)[C@@]2(C)c3[nH]c4cc(-c5ccco5)ccc4c3CCN2C1=O | 12% | nt | nt | -2.5 | ? | 4.4% | nt
Cc1ccc(CN2CCN(/N=C/c3cc([N+](=O)[O-])ccc3Cl)CC2)cc1 | 2.0% | 13% | 1.3 | -3.8 | -12% | -1.9% | -7%
CC(C)n1ncc2c(C(=O)N3CCN(S(=O)(=O)c4cccc(F)c4)CC3)cc(C3CC3)nc21 | 1.7% | -40%[inhibitor] | nt | -1.3 | nt | -1.3% | nt
Cc1ccc(Cn2nnc3c(=O)[nH]c(C4CCCN(S(=O)(=O)c5ccccc5)C4)nc32)cc1 (stereo unspecified) | 2.3%[38.3 µM] | -22% | 5.9 | -2.2 | 7% | 0.4% | 1%
CC(=O)N1C(=S)NC(=O)/C1=C1/C(=O)N(CC(=O)Nc2cccc(C)c2)c2ccccc21 | 7.0% | -3% | 6.4 | -0.2 | 15% | 1.8% | ?
COC(=O)c1nc(N)sc1-c1ccc(Cl)c(Cl)c1 | 5.4% | 8% | -0.1 | -4.5 | -7% | ? | 9%
Cc1cc(NS(=O)(=O)c2ccc(C(C)C)cc2)no1 | 0.9% | ? | -0.3 | 1.3 | -13% | 1.8% | -1%

Bioassay records (PubChem BioAssay)
